# BJeLR lethal – kills HRASV12-expressing BJeLR cells. 0.17% of 300,000 active. BJeLR (HRASV12) viability, CellTiter-Glo ATP luminescence, 48 h; reference of the scale not given here. inhibition, % (test concentration not listed);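 active means replicate mean above 50%; inconclusive means above 50% but judged a plate artefact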;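 further: 50 nL library stock added to about 25 µL; numbers are from one replicate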
# Mtb hypoxia rep – Mtb hypoxia fluorescent reporter inhibition; M. tuberculosis hypoxia-regulated fluorescent reporter, fluorescence; fluorescence inhibition, % (test concentration not listed); 0.1% of 300,000 active;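 active means 35 to 45% if threefold the growth effect, above 45% if 1.5-fold the growth effect; inactive means the rest, general growth blockers included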;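 further: wells of about 50 µL received 100 nL stock; 0% = vehicle wells and 100% = reference inhibitor wells; whole bacteria with a GFP reporter of the hypoxia response; strong numbers were not always called active; many hits fall short of the cut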
# ugtP null kill – kills S. aureus RN4220 lacking UgtP; growth inhibition, % (no concentration beside the values); 0.54% of 330,000 active; AID 1259309; S. aureus RN4220 ugtP deletion, OD600 growth, 16 h; some inactives read as strong as hits;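 active means z-score under -3 and OD600 up to 0.15 on both plates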;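 further: plate controls were untreated wells for no effect and antibiotic for full effect; wells of about 80 µL received 100 nL stock; the first replicate is given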
# Sa RN4220 lethal – kills Staphylococcus aureus RN4220 | AID 1259311 | 0.33% of 330,000 active | inhibition, % (test concentration not listed) | S. aureus RN4220 growth, OD600, 16 h;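 active means z-score of -3 or lower and OD600 up to 0.18 on both plates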;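 further: plate controls were untreated cells for no effect and reference antibiotic for full effect; stock transfer was 100 nL into about 80 µL; one replicate is shown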
# PrP UTR inh – suppresses PrP 5' UTR mRNA reporter expression | cell-based PrP 5' UTR mRNA reporter, plate reader | inhibition, % (concentration not given with the values) | 0.35% of 340,000 active | AID 488862;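 active means every replicate at 50% or more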;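 further: 0 = median of the neutral control wells; tested in H4 reporter cells; numbers are from one replicate; inactives centre near -14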
# Bead autofluor – compound fluorescence in toxin protease inhibitor counterscreen. compound autofluorescence counterscreen, microsphere flow cytometry; hits give high values. fluorescence intensity (concentration not given with the values). 3.1% of 360,000 active;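 active means at least 3 SD above the mean of all compounds, about 16000 in these data; inconclusive means too few beads counted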;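 further: 100 nL of 1 mM stock went into each well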
# Mtb hypoxia rep growth – recorded beside Mtb hypoxia rep, whose call it bears; growth inhibition, %; measured here: M. tuberculosis growth (absorbance);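 0% = vehicle and 100% = reference antibiotic; read after six days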
# Starred values were filed as active, the others as inactive; ? = inconclusive; nt = not tested or not shown.
SMILES,BJeLR lethal,Mtb hypoxia rep,Mtb hypoxia rep growth,ugtP null kill,Sa RN4220 lethal,PrP UTR inh,Bead autofluor
CC(=O)C(Sc1ccc2nnc(-c3ccc(C)cc3)n2n1)C(C)=O,-2,4,9,3,-1.1,-28,5271
COc1ccccc1OC(=O)c1ccc(C)c(S(=O)(=O)N2CCOCC2)c1,-4,-5,-2,2,3.3,-16,4568
CN(C)N1C(N)=C(C#N)C(c2ccc(Br)cc2)C2=C1CC(C)(C)CC2=O (configuration not stated),-12,1,-8,0,2.8,-5,3809
CCn1c(COc2cccc(OC)c2)nnc1SCC(=O)Nc1cccc(OC)c1,-10,10,5,8,0.7,-1,15930
COCCCNC(=O)CCC(=O)NNc1nc2ccccc2c2nc(-c3ccccc3)nn12,-10,5,9,0,0.8,-31,7222
CCCN(CC(=O)Nc1ccccc1OC)C(=O)CSC(=S)N1CCCC1,nt,6,1,14,5.8,-26,8108
O=C(N/N=C/c1coc2ccccc2c1=O)c1ccc(Cl)cc1,11,nt,nt,nt,nt,-6,5654
O=C(Nc1ccccc1Sc1ccccc1)C1CCCO1 (configuration not stated),-16,0,15,6,7.7,-18,5974
O=C(Nc1cc2c3c(c1)CC(=O)N3CCC2)c1ccccc1C(F)(F)F,11,-4,-2,3,4.8,-20,5022
O=C(Nc1ncc(C(F)(F)F)cc1Cl)c1ccc(S(=O)(=O)N2CCOCC2)cc1,-5,4,-6,0,-4.0,-17,3522
Cc1ccc(NC(=O)c2ncn(CC(=O)NCc3nc4ccccc4[nH]3)n2)cc1C,nt,-15,-17,-3,3.5,-11,4497
O=c1cc2c(nn1Cc1cccc([N+](=O)[O-])c1)-c1ccccc1CC2,-4,13,6,-11,3.2,-19,4135
Cc1c(C=O)c2ccccn2c1C(=O)c1ccccc1,3,nt,nt,8,3.5,-6,3245
COc1ccc(C(=O)C[n+]2ccccc2C=NO)cc1,nt,-2,14,-4,-0.5,nt,nt
CC(=O)Nc1ccccc1OC(C)C(=O)N1CCC(C)CC1 (configuration not stated),-6,12,7,3,7.2,-2,4267
Cc1ccc(-n2c(Cc3ccccc3)n[nH]c2=S)c(C)c1,6,9,1,0,4.5,-5,5193
Cc1nc(-c2ccccc2)sc1C(=O)CSc1ccc(Cl)cc1,3,nt,nt,-4,-7.7,1,5704
CC(C)C(NC(=O)c1ccccc1)C(=O)NC1CCCc2ccccc21 (configuration not stated),nt,4,4,2,-0.9,-19,3480
COc1ccc(C(=O)N2CCOC2CNC(=O)C(=O)NCc2ccccc2Cl)cc1 (configuration not stated),-11,6,10,1,0.7,-6,6364
COc1ccc(C(=O)N2CCCC(C(=O)c3ccccc3OC)C2)cc1OC (configuration not stated),-10,-5,-3,-1,1.2,-13,5735
COc1ccccc1CNC(=O)C1CCCN(S(=O)(=O)c2ccc3c(c2)C(C)(C)C(=O)N3C)C1 (configuration not stated),10,6,4,9,4.7,-3,5607
COc1ccc(CCN2C(=O)CSC2=NNC(=O)c2cccs2)cc1OC,nt,5,4,5,2.0,nt,nt
COc1ccc(-c2nnn3c2nc(NCc2ccccc2)c2ccccc23)cc1,4,-1,-1,-1,-1.6,-105,2327
Cc1cc(C(=O)COC(=O)c2cc(Cl)ccc2N)c(C)n1Cc1ccco1,-12,4,4,99*,82,-124,1981
O=C(CN1C(=O)c2cccnc2Oc2ccc(Cl)cc21)NCCc1ccccc1,2,-1,-8,4,-0.3,-26,nt

# Carrying on.
SMILES,BJeLR lethal,Mtb hypoxia rep,Mtb hypoxia rep growth,ugtP null kill,Sa RN4220 lethal,PrP UTR inh,Bead autofluor
COc1ccc(CC(=O)Nc2cc(Cl)ccc2N2CCCC2)cc1,-7,10,-8,7,2.1,-5,4122
Cc1ccc(-c2cc(C(=O)N3CCN(c4ccc(F)cc4)CC3)c3ccccc3n2)o1,-4,nt,nt,3,-1.6,-25,5954
CC(=O)Nc1ccc(NC(=O)C(C)OC(=O)c2cc(S(=O)(=O)N3CCOCC3)ccc2Cl)cc1 (configuration not stated),4,-11,-3,2,3.1,-9,5436
Cc1cc(Nc2ccc(F)cc2F)n2nc(C)nc2n1,5,nt,nt,2,1.3,-27,5402
COC(=O)c1ccc(C2Nc3ccccc3NC3=C2C(=O)CC(C)(C)C3)cc1 (configuration not stated),0,-3,3,-2,-0.2,-21,3703
Cc1ccc(NC(=S)N(CCCN(C)C)Cc2cc3cc4c(cc3[nH]c2=O)OCO4)c(C)c1,2,6,7,6,5.0,-27,4423
COc1ccc(OC)c(S(=O)(=O)NCCC2=CCCCC2)c1,-8,3,4,-9,7.5,-26,11791
O=C(NCCc1ccc(Cl)cc1)c1ccc2c(c1)OCCO2,-8,12,-2,5,0.0,-9,3276
O=C1C2CCCCC2C(=O)N1c1ccc(NC2CCN(Cc3ccccc3)CC2)c([N+](=O)[O-])c1 (configuration not stated),-1,16,10,13,4.6,-9,4985
Cc1cccc(/C(N)=N/OC(=O)c2ccccc2Cl)c1,4,-1,-2,13,2.1,-47,2517
Cc1ccc(N=Cc2ccccc2O)cc1Cl,nt,6,1,1,3.9,-24,3921
CC(=O)c1ccc(NC(=O)CN2C(=O)NC3(CCCc4ccccc43)C2=O)cc1 (configuration not stated),nt,2,-2,2,-0.3,-16,nt
CSc1nc(N)nc2c1ncn2C1OC(CO)C(O)C1O (configuration not stated),nt,11,8,-2,-0.1,-17,3690
CCSc1nc(-c2ccc(OC)cc2)n(-c2nc3ccccc3s2)n1,1,-2,6,-3,8.5,-32,10519
CN1CCc2c(sc(N=Cc3cc(Cl)ccc3O)c2C#N)C1,nt,10,3,12,5.6,nt,nt
O=Cc1ccc2noc(-c3ccc(F)cc3)c2c1,-6,-13,-1,1,1.2,-14,2995
Brc1ccc2c(c1)CNc1c(ncnc1N1CCOCC1)O2,-5,-2,6,-4,-3.1,-8,10998
CSc1ccc(-c2nc(CSCC(=O)N3CCOCC3)c(C)o2)cc1,0,7,11,-4,3.4,-29,22931*
CC(=NNc1ncc(C(F)(F)F)cc1Cl)c1ccncc1,nt,0,3,0,2.6,nt,nt
Cc1cc2oc(C(=O)Nc3ccc(S(=O)(=O)Nc4ncccn4)cc3)c(C)c2cc1Cl,nt,-4,-3,6,2.2,-3,?
CCOC(=O)Nc1ccc(S(=O)(=O)N2CCC(C)CC2)cc1,-5,2,10,5,4.5,-32,5165
Cc1ccc(N(CC(=O)NCc2ccc3c(c2)OCO3)C(=O)c2csnn2)cc1,-7,3,5,3,-4.0,-6,4408
CCC(CC)C(=O)NCc1ccccc1OC,16,5,3,9,0.1,-27,10754
CC(O)c1cccc(NC(=O)Cc2cccc3ccccc23)c1 (configuration not stated),3,14,6,13,7.5,nt,nt
CC(SC(C)C(=O)NN=Cc1cccc(Cl)c1)C(=O)NN=Cc1cccc(Cl)c1 (configuration not stated),nt,4,3,-3,3.7,24,3947

# Some of the entries so far, with two lines to a compound.
# Every second line gives: BJeLR lethal | Mtb hypoxia rep | Mtb hypoxia rep growth | ugtP null kill | Sa RN4220 lethal | PrP UTR inh | Bead autofluor
CCC(CC)C(=O)NCc1ccccc1OC
    16 | 5 | 3 | 9 | 0.1 | -27 | 10754
CC(O)c1cccc(NC(=O)Cc2cccc3ccccc23)c1 (configuration not stated)
    3 | 14 | 6 | 13 | 7.5 | nt | nt

# Carrying on.
SMILES,BJeLR lethal,Mtb hypoxia rep,Mtb hypoxia rep growth,ugtP null kill,Sa RN4220 lethal,PrP UTR inh,Bead autofluor
O=C(NN=CC1=Cc2ccccc2OC1)c1ccncc1,nt,-3,12,0,-0.7,nt,nt
Cc1cnc(C(=O)Nc2nnc(C(C)C)s2)cn1,3,-3,-4,-9,-4.0,-60,6949
O=C(CN1CCCCC1)N=Nc1c(O)[nH]c2ccccc12,2,8,3,3,5.1,-33,9136
CCc1ccc(Nc2nnc(SCn3nnc4ccccc4c3=O)s2)cc1,nt,11,3,-4,2.1,-10,2585
Cc1cccc(-n2ncc3c(NC4CCCCC4)ncnc32)c1,5,-3,-9,-14,2.6,-57,5358
CC(C)C(=O)N=C1SC2CS(=O)(=O)CC2N1Cc1ccccc1 (configuration not stated),-11,5,2,-4,3.0,-7,1997
CC(C)C[C@H](NC(=O)c1nc[nH]c1C(=O)N[C@@H](CCCCNC(=O)OC(C)(C)C)C(=O)OC(C)(C)C)C(=O)OC(C)(C)C,-5,nt,nt,nt,nt,-7,2735
CCOc1ccc(CO[C@@H]2O[C@H](CO)[C@@H](O)[C@H](O)[C@H]2NC(C)=O)cc1OC,-8,3,5,11,3.3,-25,3883
COc1ccccc1/C=C/C=N/NC(=O)c1cnccn1,8,nt,nt,nt,nt,-31,4265
O=C(NCCN1CCOCC1)c1ccc(Cl)c(S(=O)(=O)N2CCCC2)c1,-9,-4,-3,3,1.7,-20,4508
C/C(CC(=O)Nc1ccc(OCc2ccccc2)cc1)=N\NC(=O)C(=O)Nc1ccccc1C,1,nt,nt,nt,nt,-31,4333
CC(=O)c1ccc(NC(=O)C(C)N(C)CC(=O)Nc2ccccc2Cl)cc1 (configuration not stated),0,12,1,3,1.9,-8,2613
COc1ccc(-n2nc(C(=O)NCC3CCCO3)c3ccccc3c2=O)cc1 (configuration not stated),5,6,3,8,2.4,-3,6238
COC(=O)C1=C(C)N(C2CCCCC2)C(=O)/C1=C\c1cccs1,-1,11,6,3,-1.8,2,4272
N#Cc1ccc(NC(=O)COC(=O)CCNS(=O)(=O)c2ccccc2)cc1,2,3,-2,2,1.7,6,2300
O=C(NCCCn1ccnc1)c1ccccc1Cl,6,15,1,-2,1.7,-13,4274
CC(=NNC(=O)CC1(C)OCCO1)c1cccs1,nt,1,-2,8,1.7,nt,nt
CN(C)CCON=C(c1ccc(Br)cc1)c1cccnc1,nt,-8,6,2,2.6,nt,nt
Cc1cc(C)c(NC(=O)COC(=O)C2CCC(=O)N2)c(C)c1 (configuration not stated),7,13,5,11,4.2,-16,3271
CCOC1CCCC(n2cnc3c(=S)nc[nH]c32)O1 (configuration not stated),nt,19,23,0,0.6,-24,4059
Cc1ccc(C(C(=O)NC2CCCC2)N(Cc2cccs2)C(=O)c2csnn2)o1 (configuration not stated),5,-1,-4,-2,5.2,-23,4100
C[C@@H]1C=C(C(=O)O)O[C@H](OCc2ccc(CO)cc2)C1,-5,nt,nt,nt,nt,-11,3773
c1ccc2[nH]c(SCc3ccc(-c4nnco4)cc3)nc2c1,-3,4,5,9,0.6,-32,3551
CC(=O)Nc1cccc(-n2nnc(SCC(N)=O)n2)c1,3,4,6,16,4.9,-12,4411
CC(=O)c1ccc(S(=O)(=O)N(CCCO)Cc2cc3cc4c(cc3[nH]c2=O)OCCO4)cc1,1,8,5,-6,0.4,11,2975
Cc1ccc2c(C)nc(Nc3ncc4c(n3)CCCC4=O)nc2c1,1,-3,9,-9,3.1,nt,nt

# By substructure: the entries above containing an aryl thioether with sulfur outside any ring.
SMILES,BJeLR lethal,Mtb hypoxia rep,Mtb hypoxia rep growth,ugtP null kill,Sa RN4220 lethal,PrP UTR inh,Bead autofluor
CC(=O)C(Sc1ccc2nnc(-c3ccc(C)cc3)n2n1)C(C)=O,-2,4,9,3,-1.1,-28,5271
CCn1c(COc2cccc(OC)c2)nnc1SCC(=O)Nc1cccc(OC)c1,-10,10,5,8,0.7,-1,15930
O=C(Nc1ccccc1Sc1ccccc1)C1CCCO1 (configuration not stated),-16,0,15,6,7.7,-18,5974
Cc1nc(-c2ccccc2)sc1C(=O)CSc1ccc(Cl)cc1,3,nt,nt,-4,-7.7,1,5704
CSc1nc(N)nc2c1ncn2C1OC(CO)C(O)C1O (configuration not stated),nt,11,8,-2,-0.1,-17,3690
CCSc1nc(-c2ccc(OC)cc2)n(-c2nc3ccccc3s2)n1,1,-2,6,-3,8.5,-32,10519
CSc1ccc(-c2nc(CSCC(=O)N3CCOCC3)c(C)o2)cc1,0,7,11,-4,3.4,-29,22931*
CCc1ccc(Nc2nnc(SCn3nnc4ccccc4c3=O)s2)cc1,nt,11,3,-4,2.1,-10,2585
c1ccc2[nH]c(SCc3ccc(-c4nnco4)cc3)nc2c1,-3,4,5,9,0.6,-32,3551
CC(=O)Nc1cccc(-n2nnc(SCC(N)=O)n2)c1,3,4,6,16,4.9,-12,4411

# Bioassay records (PubChem)
